Screening results (PubChem)
gsp antag: antagonizes gsp, the McCune-Albright syndrome mutation; gsp-mutant cells, cAMP HTRF, 30 min; control for the full effect not named in the record; Potency, µM (series often up to 76.9 µM), for inactives: at the top dose activity change, negative = inhibition, hits mostly inhibitors; 0.4% of 340,000 active; active = falling curve of any shape with a large fitted effect; inconclusive = falling curve, mostly with a smaller effect; inactive = flat or rising curve; cell line not stated here;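 note: intracellular cAMP measured with PDE inhibitor Ro 20-1724 present during compound exposure; potency is the fitted concentration of half-maximal effect; % is set by controls: 0 for no effect and ±100 for the full control effect; nearly all actives have a fitted effect of over 65% in size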
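G418-selected cells were plated in DMEM/10% FBS for 16-24 h at 37C, then treated with compounds plus the PDE inhibitor […] (300 uM solution added) for 30 min at 37C. Intracellular cAMP was measured by HTRF after 30 min lysis at room temperature.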
D2 ag: activates the human D2 dopamine receptor | activation, % (concentration not given with the values) | DiscoveRx PathHunter D2 beta-arrestin, luminescence, 90 min; 100% = 57 uM dopamine signal | 0.084% of 360,000 active; in the data active = activation above about 40%; inconclusive = about 15% to 40%; inactive = below about 15%; note: compound concentration not given in the record; the text of the record calls up to 30% inactive
Target sequence (P14416 whole entry, looked up): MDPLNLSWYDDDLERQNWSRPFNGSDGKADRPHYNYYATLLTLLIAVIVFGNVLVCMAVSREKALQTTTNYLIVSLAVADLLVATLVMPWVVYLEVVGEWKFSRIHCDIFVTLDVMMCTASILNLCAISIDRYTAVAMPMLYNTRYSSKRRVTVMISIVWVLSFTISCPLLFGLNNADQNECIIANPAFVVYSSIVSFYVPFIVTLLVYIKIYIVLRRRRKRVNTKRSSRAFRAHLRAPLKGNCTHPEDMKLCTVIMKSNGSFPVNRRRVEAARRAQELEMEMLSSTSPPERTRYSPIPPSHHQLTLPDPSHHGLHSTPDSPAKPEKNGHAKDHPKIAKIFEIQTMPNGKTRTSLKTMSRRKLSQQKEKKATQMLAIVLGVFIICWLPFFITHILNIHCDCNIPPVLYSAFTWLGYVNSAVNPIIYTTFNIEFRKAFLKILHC
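DiscoveRx PathHunter D2 beta-arrestin cells (2,100/well) attached overnight, then compound-stimulated 90 min at 37 C in HBSS/10 mM HEPES/0.1% Tween-20 buffer; beta-galactosidase complementation read by luminescence after 1 h at ambient temperature. Dopamine 57 uM final (EC100) as control.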
D2 potentiator: positive allosteric modulators of human D2 dopamine receptor; P14416; DiscoveRx D2 beta-arrestin cells, luminescence, 90 min; 100% = 57 uM dopamine signal; 0.23% of 360,000 active; AID 624464; potentiation, % (no concentration beside the values); active = potentiation of 50% or more; inconclusive = 30% to 50%; inactive = 30% or less;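 note: compound concentration not given in the record; tested on top of an EC20 dose of dopamine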
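PathHunter D2 cells, attached overnight at 37 deg C, received compound in DMSO plus dopamine at EC20 (50 nM final) for 90 min at 37 deg C. Beta-arrestin recruitment was read as luminescence after 1 h with detection reagent at ambient temperature.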
gsp ag: agonists of gsp mutant (McCune-Albright syndrome); gsp mutant cells, cAMP HTRF, 30 min; control for the full effect not named in the record; Potency, µM (highest dose often 76.9 µM), for the others: at the top dose activation (cAMP increase), hits mostly activators; 0.13% of 340,000 active; AID 624287; active = well fitted activation curve with a large enough effect; inconclusive = small, poorly fitted or top-dose-only effect, or another doubt; inactive = no such curve, though single readings can be large or run the other way; cell line not stated here;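 note: phosphodiesterase inhibitor Ro 20-1724 added with compounds to block cAMP breakdown; potency is the fitted concentration of half-maximal effect; nearly all actives have a fitted effect of over 60% in size; about a fifth of the inactives were tested at one dose only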
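Cells in DMEM/10% FBS with G418 were pretreated with compounds in DMSO plus […] (300 uM stock) for 30 min at 37C. cAMP was measured by HTRF (cAMP-d2 plus anti-cAMP antibody-K) after 30 min at room temperature.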
Six1-Eya2 blk: inhibitors of human Six1/Eya2 interaction | Q15475+O00167 | AlphaScreen GST-Six1/His-Eya2 binding, biochemical; stronger effect = lower value; control for the full effect not named in the record | activity change, % (test concentration not listed) | 0.56% of 360,000 active | AID 651725; in the data active = activity change below about -65%; inconclusive = about -30% to -65%; inactive = above about -30%; note: % is set by controls: 0 for no effect and ±100 for the full control effect; compound concentration not given in the record
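Homogeneous AlphaScreen proximity assay pairing GST-Six1 with His-tagged Eya2 (added as 5X mix: 250 nM and 500 nM) in 50 mM Tris pH 8.0, 300 mM NaCl, 1 mM TCEP. Glutathione donor and nickel acceptor beads; 1 h, 37 °C, dark.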
CtBP-E1A inh: inhibitors of CtBP/E1A interaction. activity change, % (concentration not given with the values). AID 651724. AlphaScreen GST-E1A/His-CtBP binding, 1536-well; stronger effect = lower value; control for the full effect not named in the record. 0.49% of 340,000 active; in the data active means activity change below about -65%; inconclusive means about -30% to -65%; inactive means above about -30%; note: % is set by controls: 0 for no effect and ±100 for the full control effect
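Protein mix (5X: 125 nM each GST-E1A, His-CtBP) was incubated with pinned compound 2 h at 37 deg C in dark, in 50 mM Tris pH 8.0 buffer with 300 mM NaCl. Glutathione donor and nickel acceptor beads followed; AlphaScreen signal read after 1 h.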
Numbers without * were called inactive; ? = inconclusive; . = no result given; [ ] = another dose, or the depositor's remark. An unsorted share of the library; any-hit rate near 1.4%.

1) CCc1ccc(OCC(=O)Nc2nnc(-c3ccco3)s2)cc1
2) Cc1cccc(N2C(=O)CCC2=O)n1
3) CC1(Cc2cccc(F)c2)C(=O)Nc2ccc(-c3cccnc3)cc21 (stereo not given)
4) Nc1c(C(=O)NCc2ccc3c(c2)OCO3)nnn1Cc1ccc(Br)cc1
5) COc1ccc(NC(=O)c2ccc(C#N)cc2)cc1NS(=O)(=O)c1ccc(F)cc1
6) COc1cc([N+](=O)[O-])ccc1NC(=O)Nc1cccnc1
7) CC(NC(=O)c1ccccc1Br)C1CC2CCC1C2 (stereo not given)
8) COc1cc(C=Nc2c(C)cc(C)cc2C)ccc1OC(C)=O

Assay by compound	1	2	3	4	5	6	7	8
Six1-Eya2 blk	2	4	-11	-17	1	0	-2	-3
CtBP-E1A inh	-1	11	-1	3	-5	-12	12	0
gsp antag	4%	12%	.	7%	-15%	0%	11%	10%
D2 ag	0.9	-1.9	-5.2	-3.1	-1.0	-2.7	1.4	-3.8
D2 potentiator	2	-7	-10	-6	-14	-11	-4	1
gsp ag	?	19%[15.4 µM]	.	0%	-18%	?	22%	-11%

Whole records from above:
`CC(NC(=O)c1ccccc1Br)C1CC2CCC1C2` (stereo not given) across the screens: Six1-Eya2 blk: -2; CtBP-E1A inh: 12; gsp antag: 11%; D2 ag: 1.4; D2 potentiator: -4; gsp ag: 22%
`COc1ccc(NC(=O)c2ccc(C#N)cc2)cc1NS(=O)(=O)c1ccc(F)cc1` across the screens: Six1-Eya2 blk: 1; CtBP-E1A inh: -5; gsp antag: -15%; D2 ag: -1.0; D2 potentiator: -14; gsp ag: -18%

Next section.
9) COc1ccc(C(=O)Oc2cc(C)c(CN3CCOCC3)cc2C)cc1OC
10) COc1ccc(NS(=O)(=O)c2cccc(NC(=O)CCC(=O)c3ccc(Cl)cc3)c2)cc1
11) COc1ccc(N2C(=O)CN(Cc3cc(OC)c(OC)c(OC)c3)C2=S)cc1
12) O=CNc1cc(-c2ccc(C(=O)NC3CC3)cc2)cn2c(-c3ccc(F)cc3)cnc12
13) CC(=O)C1=C(O)C(=O)N(c2ccc(O)cc2)C1c1ccccc1Cl (stereo not given)
14) O=C(O)CC1=C(c2ccc(F)cc2)CCC1=O
15) CCN(CC)CCOC(=O)c1ccc(NC(=O)CCCN2C(=O)/C(=C/c3cccs3)SC2=S)cc1
16) COc1ccccc1N(CC1CO1)S(=O)(=O)c1ccc(C)cc1 (stereo not given)

Assay by compound	9	10	11	12	13	14	15	16
Six1-Eya2 blk	1	-1	1	?	-7	-1	-28	-2
CtBP-E1A inh	3	6	2	-15	5	2	0	7
gsp antag	-17%	?	-13%	.	0%	18%	-2%	4%
D2 ag	9.8	5.5	-0.8	-3.6	-7.1	-2.6	-1.7	-1.2
D2 potentiator	-4	7	9	-9	-6	-4	-43	-9
gsp ag	-3%[15.4 µM]	-19%	0%[15.4 µM]	.	12%[15.4 µM]	-28%	3%	-14%[15.4 µM]

Molecules shown so far that have nitrogen in an aromatic ring (6):
1) CCc1ccc(OCC(=O)Nc2nnc(-c3ccco3)s2)cc1
2) Cc1cccc(N2C(=O)CCC2=O)n1
3) CC1(Cc2cccc(F)c2)C(=O)Nc2ccc(-c3cccnc3)cc21 (stereo not given)
4) Nc1c(C(=O)NCc2ccc3c(c2)OCO3)nnn1Cc1ccc(Br)cc1
6) COc1cc([N+](=O)[O-])ccc1NC(=O)Nc1cccnc1
12) O=CNc1cc(-c2ccc(C(=O)NC3CC3)cc2)cn2c(-c3ccc(F)cc3)cnc12

Assay by compound	1	2	3	4	6	12
Six1-Eya2 blk	2	4	-11	-17	0	?
CtBP-E1A inh	-1	11	-1	3	-12	-15
gsp antag	4%	12%	.	7%	0%	.
D2 ag	0.9	-1.9	-5.2	-3.1	-2.7	-3.6
D2 potentiator	2	-7	-10	-6	-11	-9
gsp ag	?	19%[15.4 µM]	.	0%	?	.

The list goes on:
17) O=c1[nH]c2ccccc2n1C1CCN(CCOc2ccccc2)CC1
18) O=C(CCc1nc2ccccc2c(=O)[nH]1)NC1CCN(Cc2ccccc2)CC1
19) CC1Cc2ccccc2N1C(=O)CSc1nncn1C (stereo not given)
20) COc1ccc(C)cc1NS(=O)(=O)c1cccc2nonc12
21) CCC1Oc2ccccc2N(CC(=O)NCCN2CCc3ccccc3C2)C1=O (stereo not given)
22) Cn1c(=O)c2c(n(Cc3ccccc3)c1=O)NC(=O)C2CC(=O)O (stereo not given)
23) O=C(COC(=O)/C=C/c1ccc2c(c1)OCO2)NC1CCS(=O)(=O)C1 (stereo not given)
24) COc1cc2nc(SCC(N)=O)n(CCC3=CCCCC3)c(=O)c2cc1OC

Assay by compound	17	18	19	20	21	22	23	24
Six1-Eya2 blk	-9	-2	4	0	-1	0	-4	1
CtBP-E1A inh	-7	-6	-12	-2	-3	2	1	3
gsp antag	.	8%	2%	4%	-5%	8%	7%	-12%
D2 ag	-2.9	-0.4	-4.0	-6.0	-1.0	-2.3	-0.4	-1.8
D2 potentiator	-19	-5	0	-8	-16	-12	-5	-3
gsp ag	-60%[inhibitor]	-7%	2%	8%[15.4 µM]	-35%[inhibitor]	-28%	3%	-17%

25) Cc1ccc(F)cc1NC(=O)Nc1cc(C(C)(C)C)nn1C
26) COc1cc(OC)cc(-c2c(C#Cc3ccsc3)c3cc(Br)ccc3n2C)c1
27) COc1ccc(NC(=O)CSc2nc(N)c3cc4c(nc3n2)CCCC4)c(OC)c1
28) O=C1C2C3C=CC(C3)C2C(=O)N1Cc1cccnc1 (stereo not given)
29) CCCC(=O)Nc1cnc(NC(=O)c2cccc(F)c2)cc1C
30) COC(=O)c1ccccc1NC(=O)C1CC(=O)N(c2ccc(OC)cc2)C1 (stereo not given)
31) CCOC(=O)C1CCN(c2ncnc3cc(OC)c(OC)cc23)CC1
32) N#C/C=C1\Sc2ccccc2C(=O)N1CC(=O)N1CCN(S(=O)(=O)c2ccccc2)CC1

Assay by compound	25	26	27	28	29	30	31	32
Six1-Eya2 blk	3	48	-14	11	2	0	-8	0
CtBP-E1A inh	4	52	-20	-1	-1	8	0	2
gsp antag	7%	-1%	-6%	12%	-6%	1%	-4%	-16%
D2 ag	-3.4	1.9	1.7	0.4	-6.5	7.5	-0.6	-1.5
D2 potentiator	3	-2	-10	-3	5	8	0	-2
gsp ag	-7%[15.4 µM]	2%	?	-25%	7%	?	-12%	-6%

33) CC(=O)NC(c1ccc(F)c(F)c1)c1nc(-c2cccc(F)c2)cs1 (stereo not given)
34) Cc1c(C(=O)N2CCN(c3ncccn3)CC2)oc2ccc(Cl)cc12
35) CS(=O)(=O)Oc1ccccc1/C=C1/N=C(c2ccc(F)cc2)OC1=O
36) CCC(C)NC(=O)c1cn(CC)c2ccc(S(=O)(=O)N3CCCCC3)cc2c1=O (stereo not given)
37) O=C(Nc1cccnc1)c1cccc(S(=O)(=O)N2CCc3ccccc32)c1
38) O=C(c1cnn(-c2ccccc2)c1)c1ccc2ccccc2c1O
39) COC(=O)C(C)Sc1nc2c(c(=O)[nH]c(=O)n2C)n1CCCc1ccccc1 (stereo not given)
40) Cc1onc(-c2ccccc2)c1C(=O)Oc1cccnc1

Assay by compound	33	34	35	36	37	38	39	40
Six1-Eya2 blk	-4	-2	9	-3	-2	6	1	17
CtBP-E1A inh	3	-8	21	-2	-12	0	-3	3
gsp antag	.	-21%	15%	?	.	-4%	7%	3%
D2 ag	4.2	5.9	-1.5	6.2	7.5	-0.5	-1.8	-3.9
D2 potentiator	2	0	-14	-5	-5	-3	-12	3
gsp ag	.	?	-37%[inhibitor]	24%	-16%[15.4 µM]	-37%[inhibitor]	-36%[inhibitor]	-50%[inhibitor]

41) O=C1C2C(c3ccccc3)(C(=O)N1c1ccc(Cl)cc1)C2(c1ccccc1)c1ccccc1 (stereo not given)
42) O=C(N/N=C/c1cccc(Br)c1)C1CC(=O)N(c2ccccc2)C1 (stereo not given)
43) COC(=O)/C(=C/c1ccccc1)NC(=O)c1ccco1
44) COc1ccc(OC)c(S(=O)(=O)Nc2ccc(C)c(C)c2)c1
45) COc1cc(/C=C(/Sc2nnc(-c3ccc(F)cc3)o2)C(=O)O)ccc1OC(F)F
46) CCNc1c(NS(=O)(=O)c2ccc(F)c(Cl)c2)c(=O)oc2ccccc12
47) CCOC(=O)c1c(NC(=O)COc2ccccc2)sc2c1CC(C)(C)NC2(C)C
48) Cc1cc(C(C)(C)C)cc(C)c1C[n+]1ccc2ccccc2c1

Assay by compound	41	42	43	44	45	46	47	48
Six1-Eya2 blk	-7	-2	3	-1	1	-3	2	4
CtBP-E1A inh	-11	-6	-4	-1	-8	18	15	5
gsp antag	-15%	4%	-5%	-14%	9%	-36%	17%	10%
D2 ag	-1.4	0.0	-1.5	3.6	-2.3	-0.6	-4.4	2.4
D2 potentiator	-14	-8	-2	1	0	8	7	-4
gsp ag	3%	15%[15.4 µM]	1%	-2%	-35%[inhibitor]	23%[15.4 µM]	-4%[15.4 µM]	?

49) O=C(C[n+]1cc(Br)cc(Br)c1)c1ccc(-c2ccccc2)cc1
50) CC(=O)N1CCN(c2ccc(Oc3ncnc4sccc34)cc2)CC1
51) O=C1NC2(CCCCC2)C(=O)N1Cc1cccc(C(F)(F)F)c1
52) CCCCn1c(SCc2ccccn2)nc2c1c(=O)n(C)c(=O)n2C
53) CC(C)Cc1nc2oc3c(=O)[nH]cnc3c2c2c1CCC2
54) Cc1snc(SCc2ccc(Cl)cc2)c1C#N

Assay by compound	49	50	51	52	53	54
Six1-Eya2 blk	-4	0	-2	-3	?	63
CtBP-E1A inh	-10	2	.	0	-16	.
gsp antag	4%	-9%	-5%	7%	1%	-4%
D2 ag	-0.9	-3.0	-1.1	0.3	-3.2	-0.3
D2 potentiator	-13	-10	-6	-12	-4	-4
gsp ag	-2%	6%	-2%	-1%	-5%	4%
